Polio RdRp inh: poliovirus RdRp elongation inhibitors, primary screen, biochemical, fluorescence polarization, total intensity | Genome polyprotein (Poliovirus type 1 (strain Mahoney)), P03300 | poliovirus polymerase elongation; stronger effect = lower value | % elongation, % (compound at 16.7 µg/mL) | 0.66% of 150,000 active; in the data active = % elongation below about 90%; also: some results filed as inactive read as strong as hits
Target sequence (P03300 1749-2209 limits assumed): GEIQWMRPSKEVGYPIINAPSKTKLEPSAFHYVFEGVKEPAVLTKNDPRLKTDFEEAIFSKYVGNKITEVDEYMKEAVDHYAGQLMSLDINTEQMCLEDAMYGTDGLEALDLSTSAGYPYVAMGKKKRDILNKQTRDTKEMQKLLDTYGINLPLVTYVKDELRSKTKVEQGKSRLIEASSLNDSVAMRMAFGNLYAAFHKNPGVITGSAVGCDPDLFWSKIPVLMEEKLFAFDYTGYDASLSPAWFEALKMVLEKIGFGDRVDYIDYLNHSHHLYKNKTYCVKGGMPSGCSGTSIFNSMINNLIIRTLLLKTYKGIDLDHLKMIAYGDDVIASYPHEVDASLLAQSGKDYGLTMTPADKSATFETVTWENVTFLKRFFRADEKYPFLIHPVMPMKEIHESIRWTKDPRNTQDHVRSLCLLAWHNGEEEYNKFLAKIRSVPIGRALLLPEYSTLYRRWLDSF
Polio RdRp inh intensity: recorded beside Polio RdRp inh, whose call it bears; % elongation; measured here: total intensity read-out; formula for this scale not given here;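 total fluorescence in place of polarization; lower means less elongation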
Numbers without * were called inactive.

Compound,Polio RdRp inh,Polio RdRp inh intensity
Cc1ccc2oc(=O)n(CCNC(=O)Nc3ccc(C)c(F)c3)c2c1,100.0,84.0
COc1ccc(CNC(=O)CS(=O)Cc2nc(-c3ccc(OC)c(OC)c3)oc2C)cc1 (stereo not given),109.0,107.0
Cc1ccccc1CNC(=O)c1cnc2sc(N3CCC(C)CC3)nn2c1=O,106.0,110.0
Cc1ccc(C)c(NC(=O)Cn2c(=O)n(Cc3ccc4c(c3)OCO4)c(=O)c3ccccc32)c1,108.0,108.0
CCC(=O)N1c2ccc(S(=O)(=O)CCC(=O)NCc3ccc(OC)cc3)cc2CC1C (stereo not given),111.0,106.0
COc1ccccc1N1CCN(S(=O)(=O)c2ccc3c(c2)CCCN3C(C)=O)CC1,104.0,106.0
O=C(COC(=O)c1cccc(NC(=O)c2ccc(Br)cc2)c1)c1ccc(Cl)cc1,105.0,112.0
COCCN(CCOC)c1ncnc2c1c(-c1ccccc1)cn2-c1ccc(C)c(Cl)c1,104.0,106.0
CCOc1ccc(S(=O)(=O)N(CC(=O)NCCSc2ccccc2)c2ccccc2)cc1,105.0,109.0
COc1cc(OC)c(NC(=O)CCc2c(C)nc3c4c(C)cc(C)nc4nn3c2C)cc1Cl,103.0,107.0
CCCCN(CC)C(=O)CSc1nc2n[nH]c(C)c2c(=N)n1-c1ccc(CC)cc1,97.0,96.0
N#C/C(=C\c1cc(Br)c(O)c(Br)c1)c1nc2ccccc2c(=O)[nH]1,84.0,232.0
COc1ccccc1N1CCN(c2cc(C)nc3nc(-c4ccc(Cl)cc4)nn23)CC1,115.0,119.0
CCOC(=O)Cn1nc(C)c(NC(=O)COc2ccc(OC)cc2)c1C,107.0,109.0
CCc1ccc(C2=NN(CCC(=O)NCCc3ccc(Cl)cc3)C(=O)CC2)cc1,102.0,97.0
Cc1ccc(CNC(=O)Cn2c(=O)n(Cc3ccc(F)cc3)c(=O)c3sc4ccccc4c32)cc1,107.0,108.0
Cc1cccc(C(=O)Nc2ccc(S(=O)(=O)N3CCCCC3c3cccnc3)cc2)c1 (stereo not given),105.0,102.0
c1ccc(N2CCN(c3ncnc4c3nc3n4CCCCC3)CC2)cc1,106.0,102.0
CC(CNC(=O)c1csc2c1CCCCC2)c1ccccc1 (stereo not given),100.0,105.0
COc1ccccc1CNC(=O)c1cnc2sc(N3CCOCC3)nn2c1=O,111.0,103.0
O=C(Nc1cccs1)Nc1ccc(F)cc1F,101.0,106.0
O=C(NCC(c1ccco1)S(=O)(=O)c1cccs1)c1ccccc1F (stereo not given),113.0,113.0
COc1ccc(C(=O)Nc2ccc3oc(-c4ccc(F)cc4Cl)nc3c2)cc1,111.0,111.0
Cc1ccccc1Cn1c(=O)n(CCCCC(=O)NCCc2ccccc2)c(=O)c2ccccc21,107.0,110.0
Cc1ccc(NC(=O)CSc2nc(-c3ccco3)nc3cc(=O)[nH]n23)cc1,109.0,111.0
Cc1ccc(C(c2sc3nc(-c4ccco4)nn3c2O)N2CCC3(CC2)OCCO3)cc1 (stereo not given),109.0,111.0
Clc1ccccc1CNc1nc2ccccc2c2nc(-c3ccccc3)nn12,105.0,103.0
COc1ccc(-c2nc(S(=O)(=O)c3ccccc3)c(N3CCC(C)CC3)o2)cc1,107.0,109.0
Cc1ccc(-c2nc(SCC(=O)NCC3CCCO3)c(-c3ccc(C)cc3)[nH]2)cc1 (stereo not given),114.0,115.0
COCCCn1c(SCC(=O)Nc2ccc(OC)cc2)nc2c(sc3ccccc32)c1=O,104.0,108.0

(listing goes on)
Compound,Polio RdRp inh,Polio RdRp inh intensity
Cc1ccc2c(c1)N(CC(=O)Nc1ccccc1C(F)(F)F)C(=O)c1cccnc1O2,111.0,107.0
Cc1cccc(C)c1OCCCn1c(CCNC(=O)C2CCCCC2)nc2ccccc21,107.0,112.0
Cc1cccc(-c2nc(SCc3cc(=O)c4cccc(F)c4[nH]3)n[nH]2)c1,105.0,114.0
Cc1ccc(C)c(N2C(=O)N(Cc3cccc(C(F)(F)F)c3)c3ccccc3S2(=O)=O)c1,111.0,114.0
Cc1ccc(C(=O)n2nc(C)c(S(=O)(=O)N3CCCCCC3)c2C)cc1C,104.0,105.0
COC(=O)c1ccc(NC(=O)Cn2c(=O)nc(-c3ccccc3)c3ccccc32)cc1,112.0,107.0
Fc1ccc(-c2cc(-c3nc(-c4ccccc4)no3)[nH]n2)cc1,105.0,105.0
COc1ccccc1Nc1nn2c(=O)c3ccc(C(=O)Nc4ccc(F)cc4)cc3nc2s1,111.0,108.0
COc1cccc(CSc2nc3n(n2)C(c2cccs2)C(C(=O)Nc2ccccc2C)=C(C)N3)c1 (stereo not given),102.0,106.0
COc1ccc(-c2cc(C(F)(F)F)nc(SCC(=O)Nc3ccc(O)cc3)n2)cc1OC,102.0,107.0
CCC(C)NC(=O)C(=O)Nc1c2c(nn1-c1ccccc1)CS(=O)(=O)C2 (stereo not given),106.0,108.0
Cc1ccc(OCC(=O)Nc2ccccc2C(=O)OCc2cc(=O)n3c(C)csc3n2)cc1,105.0,105.0
COc1ccc(NC(=O)Cn2c(SCc3cc(C)ccc3C)nc3ccncc32)c(OC)c1OC,107.0,110.0
O=C(CSc1nnc(NC(=O)NC2CCCCC2)s1)Nc1ccccc1F,112.0,110.0
O=C(Nc1ccc(F)cc1F)C1CCN(c2ncccn2)CC1,105.0,111.0
Cn1c(SCc2ccc(Br)cc2)nc2c([nH]c3ccccc32)c1=O,102.0,96.0
Cc1ccc2c(c1)N(C(=O)Nc1ccc(Br)cc1F)CCO2,106.0,111.0
CCc1ccc(NC(=O)Cn2c(=O)n(-c3ccc(Cl)c(Cl)c3)c(=O)c3c(C)c(C)sc32)cc1,106.0,107.0
Cc1c(CN(C)C(=O)c2cc(-c3ccccc3)nc3ccc(Br)cc23)cnn1C,106.0,111.0
O=S(=O)(NCc1ccc(F)cc1)c1ccc2[nH]c3c(c2c1)CCCCC3,103.0,100.0
COc1ccc(-c2nc3ccccc3n2Cc2ccc(C(C)C)cc2)cc1,109.0,111.0
Cc1ccc(C(=O)NCC(=O)OCc2cc(=O)n3nc(C4CC4)sc3n2)cc1,106.0,112.0
COc1cccc(N2CCN(C(=O)C(CCSC)NS(=O)(=O)c3ccc4c(c3)oc(=O)n4C)CC2)c1 (stereo not given),105.0,107.0
COc1ccc(NC(=O)c2cc3c(s2)-c2c(C)cccc2OC3)cc1Cl,100.0,113.0
Cn1cc(CCCC(=O)NCc2cccc(Br)c2)c2ccccc21,110.0,116.0
Cc1cccc(NC(=O)CSc2nc3ccccc3c3nc(CCc4c(C)n[nH]c4C)nn23)c1,102.0,110.0
O=C(CCCCCn1c(=O)[nH]c2ccccc2c1=O)NCc1ccc(Cl)cc1,104.0,111.0
Cn1c(=O)c2c(-c3ccccc3)n3c(c2n(C)c1=O)C(c1ccco1)Nc1ccccc1-3 (stereo not given),108.0,112.0
CCC(C(=O)N1CCN(c2ccccc2)CC1)n1nc(C)c2sc3ccccc3c2c1=O (stereo not given),90.0*,58.0*
CCCCn1cc2c(c1-c1ccccc1Br)c(=O)n(C)c(=O)n2C,105.0,100.0

Carrying on:
Compound,Polio RdRp inh,Polio RdRp inh intensity
COc1ccc(CNc2oc(/C=C/c3cc(OC)c(OC)c(OC)c3)nc2C#N)cc1,111.0,113.0
Cc1cc(OCC(=O)N(Cc2ccc(N(C)C)cc2)Cc2ccco2)cc(C)c1Cl,111.0,108.0
COc1ccc(N2CC(NC(=O)Cc3cccs3)CC2=O)cc1 (stereo not given),103.0,107.0
Cc1ccccc1OC(=O)CSc1nnc(-c2ccc3c(c2)OCO3)o1,104.0,92.0
COc1cccc(C(=O)N(Cc2cccc(Cl)c2)Cc2ccco2)c1,106.0,109.0
Cc1c(C)n(C)c2ccc(C(=O)NCCCN3CCCCC3C)cc12 (stereo not given),107.0,98.0
COc1ccccc1NC(=O)c1sc2nc(C)c(C(=O)Nc3ccc(C)cc3C)c(-c3cccs3)c2c1N,111.0,115.0
Cc1ccc(CC(=O)NCc2nc(-c3ccccc3)no2)cc1,111.0,113.0
O=C(CNC(=O)c1ccc(F)cc1)OCc1cc(=O)n2ccsc2n1,102.0,95.0
CC1=C(C(N)=O)C(c2cccc(O)c2)n2ncnc2N1 (stereo not given),112.0,118.0
COc1ccc2c(c1)CC(C(=O)NCCN1CCN(c3cccc(Cl)c3)CC1)CO2 (stereo not given),110.0,105.0
COc1ccc(COC(=O)C2=C(C)NC(=O)CC2c2cccc(Cl)c2Cl)cc1 (stereo not given),107.0,110.0
COc1ccc(Cn2ccc3nc(C)c(C(=O)Nc4cc(C)cc(C)c4)cc3c2=O)cc1,101.0,109.0
CCOC(=O)c1c(C)[nH]c(C)c1S(=O)(=O)NCC(=O)NCc1ccccc1C,106.0,100.0
COc1ccc(CCNC(=O)CCCn2c(=O)c3ccccc3n(CC(=O)Nc3cc(Cl)ccc3C)c2=O)cc1OC,107.0,110.0
CNC(=O)C1CCC(Cn2c(=O)c3sccc3n(CC(=O)N3CCCCC3C)c2=O)CC1 (stereo not given),115.0,110.0
COc1ccc(NC(=O)Cc2coc3cc(C)cc(C)c23)c(OC)c1,112.0,115.0
CCCS(=O)(=O)NCCc1sc2nc(-c3ccc(F)cc3)nn2c1C,110.0,100.0
CCS(=O)(=O)c1ncc(N(Cc2ccccc2)Cc2ccco2)c(C(=O)Nc2ccccc2C)n1,102.0,102.0
Cn1nnnc1SCCCNCc1cccc(OCc2ccc(F)cc2)c1,100.0,97.0
COCCNC(=O)C1CCN(S(=O)(=O)c2ccc3c(c2)CCCN3C(C)=O)CC1,109.0,108.0
CCc1ccc(NC(=O)C(C)n2nnc3sc(-c4ccccc4)cc3c2=O)cc1 (stereo not given),79.0*,81.0*
Cc1cccc(OCc2nnc(SCC(=O)Nc3ccc(C)cc3C)o2)c1,110.0,103.0
Cc1nc2c(-c3ccc(F)cc3)c(C)nn2c(C)c1CCC(=O)NCc1ccc(F)cc1,106.0,107.0
CCCCOC(=O)c1ccc(NC(=O)Cn2nnc3sc4c(c3c2=O)CCCC4)cc1,108.0,114.0
CC(=O)N1CCc2cc(Br)cc(S(=O)(=O)NCCc3cccc(C)c3)c21,101.0,109.0
Fc1ccc(Cc2cn3cc(-c4ccc(F)cc4)nc3s2)cc1,106.0,108.0
COc1ccccc1OC(C)C(=O)N1CCN(CCc2ccccn2)CC1 (stereo not given),109.0,112.0
CC(CC(=O)Nc1ccc(F)cc1)S(=O)(=O)c1cc2c3c(c1)CCN3C(=O)CC2 (stereo not given),113.0,115.0
CCOc1ccc(NC(=O)c2cnn(-c3ccccc3)c2-n2cccc2)cc1,103.0,105.0

Following part:
Compound,Polio RdRp inh,Polio RdRp inh intensity
COc1ccc(Cl)cc1C(=O)NCc1nnnn1-c1ccccc1,110.0,105.0
Cc1ccc(/C=C(\C#N)C(=O)Nc2ccc(Br)cc2)o1,112.0,122.0
CC(=O)N1c2ccc(S(=O)(=O)N3CCCCCC3)cc2CC1C(=O)NCc1ccccc1C (stereo not given),99.0,104.0
COc1ccc(NC(=O)C2CCCN(S(=O)(=O)c3ccc(Cl)cc3)C2)cc1 (stereo not given),111.0,108.0
CN(C)c1ccc(NC(=O)CN2C(=O)c3ccccc3Sc3ccc(C(=O)N4CCCC4)cc32)cc1,113.0,110.0
CC1=C(C(=O)Nc2ccc(Cl)cc2)C(CC(C)C)n2nc(SCc3ccccc3C)nc2N1 (stereo not given),112.0,113.0
Cc1ccc(-c2nc3scc(CCNC(=O)Cc4ccc(Cl)cc4)n3n2)cc1,108.0,100.0
O=C(c1ccc2c(c1)N(Cc1c(F)cccc1Cl)C(=O)c1ccccc1S2)N1CCOCC1,109.0,108.0
CCC(C)n1c(=N)c(S(=O)(=O)c2ccccc2)cc2c(=O)n3ccccc3nc21 (stereo not given),108.0,113.0
O=C(Cn1ncn2cccc2c1=O)NCc1cccc(Br)c1,107.0,100.0
COc1ccc(OC)c(CCNC(=O)C(C)n2nc(C)c3c(C)n(-c4ccc(C)cc4)nc3c2=O)c1 (stereo not given),113.0,105.0
CCOc1cc(C(=O)N2CC(=O)Nc3ccc(C)cc3C2c2ccccc2)cc(OCC)c1OCC (stereo not given),107.0,107.0
Cc1ccc(NS(=O)(=O)c2ccc3c(c2)NC(=O)CCS3)cc1C,109.0,116.0
CCCCSc1ncnc2c1sc1nc(N3CCOCC3)c3c(c12)CCCC3,104.0,105.0

Entries listed so far with a furan ring, fused or not, in the order listed:
Compound,Polio RdRp inh,Polio RdRp inh intensity
O=C(NCC(c1ccco1)S(=O)(=O)c1cccs1)c1ccccc1F (stereo not given),113.0,113.0
Cc1ccc(NC(=O)CSc2nc(-c3ccco3)nc3cc(=O)[nH]n23)cc1,109.0,111.0
Cc1ccc(C(c2sc3nc(-c4ccco4)nn3c2O)N2CCC3(CC2)OCCO3)cc1 (stereo not given),109.0,111.0
Cn1c(=O)c2c(-c3ccccc3)n3c(c2n(C)c1=O)C(c1ccco1)Nc1ccccc1-3 (stereo not given),108.0,112.0
Cc1cc(OCC(=O)N(Cc2ccc(N(C)C)cc2)Cc2ccco2)cc(C)c1Cl,111.0,108.0
COc1cccc(C(=O)N(Cc2cccc(Cl)c2)Cc2ccco2)c1,106.0,109.0
COc1ccc(NC(=O)Cc2coc3cc(C)cc(C)c23)c(OC)c1,112.0,115.0
CCS(=O)(=O)c1ncc(N(Cc2ccccc2)Cc2ccco2)c(C(=O)Nc2ccccc2C)n1,102.0,102.0
Cc1ccc(/C=C(\C#N)C(=O)Nc2ccc(Br)cc2)o1,112.0,122.0

Screening data deposited in PubChem by ICCB-Longwood Screening Facility, Harvard Medical School.

This is a subset; the hit share may differ from the screen's.
